# AID504770: growth inhibition of E. coli YBA685, primary screen, V. cholerae RctB inhibitors; E. coli YBA685 rctB-dependent plasmid, OD600 growth, 3 h; hits give low values; z-score (no concentration beside the values); 130,000 compounds, 0.27% hits;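 active = z-score under -2 on both plates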;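 also: wells of about 30 µL received 100 nL stock; score is relative to mean and SD of the test wells; the first replicate is given; strong numbers were not always called active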
# Ba CapD inh: Bacillus anthracis CapD inhibitors, primary screen, biochemical, fluorescence intensity; purified CapD enzyme, fluorescence intensity read-out; hits give low values; some hits fall short of the stated cut; CapD gamma-glutamyltranspeptidase (Bacillus anthracis Ames Ancestor); 140,000 compounds, 0.23% hits; z-score (concentration not given with the values); AID 492967, 2010;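 active = z-score under -4 in either of two replicates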;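 also: stock transfer was 100 nL into about 40 µL; score is relative to mean and spread of the plate; one replicate is shown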
# Numbers without * were called inactive; i = inactive; . = no result given.
Compound	AID504770	Ba CapD inh
CSC(=S)Nc1ccc(NC(C)=O)cc1	-1.1	-1.3
O=C(COc1ccc(Br)cc1)NCCCN1CCCC1=O	0.1	.
O=C(Nc1ccc2[nH]ccc2c1)c1ccc(F)cc1	0.65	-1.1
C=CCn1c(SC)nnc1-c1ccc2ncccc2c1	-1.6	0.4
O=C1OCCC1Sc1cccc2cccnc12 (centres undefined)	-0.45	67
COc1cc(C2C(C#N)=C(N)Oc3n[nH]c(-c4ccc5ccccc5c4)c32)ccc1O (centres undefined)	.	0.34
CC(=O)N1Cc2ccccc2CC1C(=O)NCc1ccc2c(c1)OCO2 (centres undefined)	0.15	.
CC(NC(=O)c1cc2c(s1)CS(=O)(=O)C2)c1ccccc1 (centres undefined)	1	-0.28
CC(C(N)=O)N1C(=O)c2cccc3cccc1c23 (centres undefined)	-0.4	-1.1
CN(CC(=O)Nc1ccc(Cl)cc1)CC(=O)Nc1ccc(C(N)=O)cc1	-0.45	.

# (list continues)
Compound	AID504770	Ba CapD inh
Oc1ccccc1C(C#Cc1ccccc1)N1CCOCC1 (centres undefined)	-0.2	.
Nc1ccc(Cc2nc3ccccc3[nH]2)cc1	0.25	.
O=C(OCc1ccccc1)C1CCCN1C(=O)OCc1ccc2ccccc2c1 (centres undefined)	.	-0.18
CCOc1ccc(N2CC(C(=O)OC(C)C(=O)c3ccccc3)CC2=O)cc1 (centres undefined)	-0.45	.
CCOC(=O)C1=C(O)/C(=C/c2ccc(OC)cc2)SC1=Nc1ccc(OC)cc1	.	0.075
O=C(Nc1ccc(-c2nc3ccccc3[nH]2)cc1)C1CC1	-0.55	69
O=C(O)/C(=C/c1ccc2c(c1)OCO2)NC(=O)c1ccccc1	0.05	-0.71
O=C(Cc1ccc(Br)cc1)c1ccc2c(c1)Cc1ccccc1-2	.	-1.3
CC1CCCN(c2nnc(NC(=O)NCc3ccccc3)s2)C1 (centres undefined)	0.2	0.31
CCN(CC)C(=O)Nc1ccc(OC)cc1	0.25	-0.15

# (cont.)
Compound	AID504770	Ba CapD inh
COc1cccc(Oc2ccc(C(F)(F)F)cc2NC(=O)CSCC(=O)Nc2cc(C)on2)c1	-0.3	.
COc1ccc(OCC(O)CNC(=O)c2ccccc2C(=O)O)cc1 (centres undefined)	0.2	21
CC(=O)N1CCc2cc(S(=O)(=O)NCCC(=O)Nc3nc4ccc(C)cc4s3)ccc21	-1	0.36
Cc1nn(Cc2ccc(Cl)cc2)c(C)c1S(=O)(=O)N(C)C	0.05	.
COC(=O)C1=CN(CCC23CC4CC(CC(C4)C2)C3)C=C(C(=O)OC)C1c1cc(OC)c(OC)c(OC)c1	.	-0.47
O=C1NC(c2ccc(O)cc2O)Nc2sc3c(c21)CCCC3 (centres undefined)	.	20
CCCC(=O)Nc1ccccc1-c1nc2ccccc2[nH]1	0.55	i
CC(C)(C)NC(=O)Nc1ccc(Cl)cc1	-1.1	1.1
COc1ccc(C(=O)N/C(=C\c2ccccc2)C(=O)NCc2ccco2)cc1	-0.25	1.5
COC(=O)c1ccccc1NC(=O)c1sc2ncnc(N(C)c3ccccc3)c2c1C	.	1.1

# Next results follow.
Compound	AID504770	Ba CapD inh
CCN(CC)c1ccc(NC(=S)NC(C)C)cc1	0.55	.
CC(=O)N/C(=C\c1ccc(Cl)cc1)C(=O)O	-0.45	0.54
COc1cc2[nH]c(=S)nc(NCc3cccnc3)c2cc1OC	-1.3	0.4
COC(=O)CSc1nc(C)nc2c1oc1ccccc12	0	0.48
CCOC(=O)c1c(C)oc2c1c1c(c3ccccc32)OCN(C2CCCC2)C1	-1	18
CSCCC(=O)Nc1ccccc1I	0.25	.
CCOc1cc(/C=N/NC(=O)c2ccc(CSc3nncn3C)cc2)ccc1OCC(=O)N1CCOCC1	-1.6	.
CSc1nc2ccccc2n1CN(C)Cc1ccccc1	-0.9	-0.61
Cc1nc2c(c(C)nn2C)c(C)c1CCC(=O)N1CCC(C)CC1	0.3	-0.085
CCOC(=O)C1=C(C)N=c2s/c(=C\c3cc(Br)c(O)c(OC)c3)c(=O)n2C1c1ccc2c(c1)OCO2 (centres undefined)	.	-0.41

# Carrying on:
Compound	AID504770	Ba CapD inh
Cc1c(C(=O)Nc2ccc(C(F)(F)F)cc2)sc2ncn(CC(=O)N3CCN(c4ccccn4)CC3)c(=O)c12	.	-0.59
FC(F)(F)c1ccccc1-c1ncc(-c2ccccc2)o1	-0.95	89
Cc1ccc(Cl)cc1-n1c(=O)cc(N2CCN(C(=O)c3ccco3)CC2)[nH]c1=O	-0.5	0.03
COc1ccc(S(=O)(=O)N2CCN(C(=O)C(C)Oc3ccc(F)cc3)CC2)cc1 (centres undefined)	-0.35	.
CCc1ccc(-c2cc(C)no2)cc1S(=O)(=O)N1CCN(c2ccccc2OC)CC1	-1.9	-0.26
COc1cc2cc(C(=O)c3ccccc3O)cnc2cc1OC	-0.65	.
CCN(c1cccc(C)c1)S(=O)(=O)c1cc2c3c(c1)CCN3C(=O)CC2	-1.1	.
Cc1sc2c(c1C)C(=O)NC(c1cccc(O)c1)N2 (centres undefined)	-0.7	-0.3
N#Cc1nc(-c2ccccc2)cc(-c2ccccc2)n1	0.55	0.88
CC(C)Cc1ccc(C(=O)C(C)N2CCN(c3ccc(C(F)(F)F)cn3)CC2)cc1 (centres undefined)	1.9	-0.41

# Next entries follow:
Compound	AID504770	Ba CapD inh
COc1cc(C2C3=C(CC(C)(C)CC3=O)N(CC(=O)O)C3=C2C(=O)CC(C)(C)C3)ccc1OCc1ccc(Cl)cc1	.	2.7
COc1ccccc1-c1cc(=O)[nH]c2c1CCCC2	-0.05	0.83
O=C(NC1CCCCCC1)c1ccc2c(c1)OCO2	-0.05	-0.35
O=C(O)/C=C/C(=O)NC1CCCCC1NC(=O)/C=C/C(=O)O (centres undefined)	-1.1	-0.17
CC(C)(C)c1cc(C(=O)NCc2ccc(C#N)cc2)n(Cc2ccccc2)n1	0.5	0.81
O=C(/C=C/c1ccccc1)OCC1COc2ccccc2O1 (centres undefined)	-0.8	0.71
COc1cc2c(cc1OC)C(C(=O)N1CCCCCC1)C1c3ccccc3CCN1C2=O (centres undefined)	-0.75	0.65
COc1ccc2c(c1)n1nnnc1c1nnnn21	0.45	76
C[N+]1(C)C[C@@H](O)C[C@H]1C(=O)[O-]	.	1.7
CC(C)(C)SCC(=O)c1ccc2c(c1)CCC(=O)N2	-0.55	-0.57

# Whole records from above. Screens in order: AID504770	Ba CapD inh
# Record of `O=C(NC1CCCCCC1)c1ccc2c(c1)OCO2` = -0.05	-0.35
# Record of `O=C(O)/C=C/C(=O)NC1CCCCC1NC(=O)/C=C/C(=O)O` (centres undefined) = -1.1	-0.17
# Record of `COc1ccc2c(c1)n1nnnc1c1nnnn21` = 0.45	76
# Record of `COc1cc(C2C3=C(CC(C)(C)CC3=O)N(CC(=O)O)C3=C2C(=O)CC(C)(C)C3)ccc1OCc1ccc(Cl)cc1` = .	2.7

# Next section:
Compound	AID504770	Ba CapD inh
COc1ccc2[nH]c3c(c2c1)CCNC3C1CC=C(C)CC1 (centres undefined)	-0.5	-0.27
O=C(NCc1nc2ccccc2n1Cc1ccccc1)c1ccco1	0.1	-0.12
O=C(Nc1ccc(O)cc1)c1c(O)c2ccccc2[nH]c1=O	0.45	-0.04
CC(Oc1ccccc1)C(=O)NCCSc1c[nH]c2ccccc12 (centres undefined)	-0.6	-0.56
O=S(=O)(Nc1ccc2ccccc2c1)c1cccs1	2.3	-0.33
CC12C=CC(=O)C1(C)C(=O)C=C2 (centres undefined)	-0.55	0.2
O=C(CC1CCCC1)Nc1c(C(=O)Nc2ccccc2)oc2ccccc12	-1.2	.
COc1ccc2c(c1)C1C=CCC1C(c1cc3c(cc1Br)OCO3)N2 (centres undefined)	0.5	0.58
Cc1cccc(N2CCN(CCNC(=O)c3ccc4nc(N5CCOCC5)sc4c3)CC2)c1C	1.2	-0.69
Cc1ccc(C(=O)N/C(=C/c2cccc([N+](=O)[O-])c2)C(=O)Nc2ccc(Br)cc2)cc1	.	0.025

# Additional compounds
Compound	AID504770	Ba CapD inh
CN1CCN(C(=O)c2ccc(C3SCC(=O)N3Cc3ccco3)cc2)CC1 (centres undefined)	-0.3	.
COc1ccccc1N(C(=O)CN1C(=O)C2C3C=CC(C3)C2C1=O)C1=NCCCS1 (centres undefined)	-1.9	.
Cc1ccc(Sc2ccc(COc3ccc(F)cc3)cc2[N+](=O)[O-])cc1	.	0.015
CCN1C(=O)N/C(=C/c2ccc(Sc3ccc(C)cc3)o2)C1=O	-0.15	-0.57
Cc1nn(-c2ccccc2)nc1CNC(=O)c1cc(F)cc2c1OCOC2	-0.1	1.2
COc1ccccc1C1CC(C(F)(F)F)n2ncc(C(=O)O)c2N1 (centres undefined)	-0.2	0.38
CC(=O)Nc1ccccc1-c1nc2ccccc2nc1OCC(=O)c1ccc(Cl)cc1	-1.3	0.23
C=C1c2cc(CC)ccc2NC(=O)N1c1ccccc1	0	-0.39
Cc1ccc(-c2cc3nc(-c4ccccc4)cc(N)n3n2)cc1	0.25	67
COc1ccc(C=Nc2ccccc2)cc1	-1.1	0.035

# Next entries follow.
Compound	AID504770	Ba CapD inh
CCc1ccc2ncc(S(=O)(=O)c3ccccc3)c(N3CCOCC3)c2c1	1.6	-0.41
O=C(O)[C@H](O)c1ccccc1	.	-0.05
Cc1cc(Nc2cccc(C(F)(F)F)c2)nc2ccc(NC(=O)C3COc4ccccc4O3)cc12 (centres undefined)	1.9	78
CC(C(=O)Nc1ccc(S(N)(=O)=O)cc1)N1C(=O)C2C3C=CC(C3)C2C1=O (centres undefined)	-1.1	-0.075
COc1ccc(OC)c(-c2cc(C(=O)N3CCN(c4ncccn4)CC3)c3ccccc3n2)c1	-0.65	0.21
O=C(O)C1CCN(S(=O)(=O)c2cccs2)CC1	2	-0.15
CCOC(=O)C1=C(C)OC(N)=C(C(=O)OCCOC)C12C(=O)Nc1ccc(Br)cc12 (centres undefined)	.	-0.055
COc1ccc(CN(C(C)=O)c2ccccc2C(=O)O)cc1	-0.35	.
CCc1ccc(N2CCN(C(=O)c3ccc4c(c3)OCO4)CC2)cc1	0.2	0.17
Cc1nn(Cc2ccccc2Cl)c(Cl)c1C(=O)OC1CCOC1=O (centres undefined)	0.75	.

# The listing continues:
Compound	AID504770	Ba CapD inh
O=C(Nc1ccc(Br)cc1)C(Cc1ccccc1)N1C(=O)C2C3c4ccccc4C(c4ccccc43)C2C1=O (centres undefined)	.	0.035
Cc1ccn2cc(-c3ccc(F)cc3)nc2c1	-0.65	97
c1nc(N2CCOCC2)c2sccc2n1	-0.75	0.28
N#Cc1ccc(OCC(=O)NCCCc2ccccc2)cc1	-0.45	-0.12
COc1ccc(NC(=O)c2sc3nc(C)nc(N4CCOCC4)c3c2C)c(OC)c1	.	0.095
Cc1ccc2c(c1)C(c1ccccc1)N(C(=O)C1CC1)CC(=O)N2 (centres undefined)	0.2	-0.22
O=C(Nc1ccccc1C(=O)N1CCCCCC1)c1cccc(S(=O)(=O)N2CCCCCC2)c1	0.05	7.4
CCOC(=O)C1=C(C)OC(N)=C(C(=O)OC(C)(C)C)C12C(=O)Nc1ccccc12 (centres undefined)	.	-0.34
Cc1ccc(/C(O)=C/c2nc3ccccc3[nH]c2=O)cc1C	0.15	0.11
O=S(=O)(CCN1CCN(Cc2ccccc2)CC1)c1ccc(Cl)cc1	-0.45	-0.32

# (next part)
Compound	AID504770	Ba CapD inh
Cc1cc2c(=O)n(CC(=O)Nc3ccccc3)cnc2s1	0	0.48
CN(C)S(=O)(=O)c1cc2c(c([N+](=O)[O-])c1)-c1c(cc(S(=O)(=O)N(C)C)cc1[N+](=O)[O-])C2=NO	.	-0.23
CCOC(=O)c1c(C)oc2ncnc(N3CCOCC3)c12	0.85	-0.3
O=C(CSc1nc2ccccc2c(=O)n1C1CCCC1)N1CCN(c2ccccc2)CC1	.	0.43
O=C(CC(c1ccccc1)c1ccccc1)Nc1ncn[nH]1	0.4	2.7
CC(C)NC(=S)Nc1ccccn1	-0.7	.
CC(=O)Nc1cccc(-c2nnc3n2CC(C)S3)c1 (centres undefined)	0.25	-0.14
OC(c1cccc(OCc2ccccc2)c1)c1nnc(-c2ccccc2)o1 (centres undefined)	-0.35	.
COc1ccc(OC)c(NC(=O)C2C3C=CC(C3)C2C(=O)NCc2cccnc2)c1 (centres undefined)	1.1	.
O=C(O)C12CC3CC(CC(Cl)(C3)C1)C2	.	0

# Further compounds
Compound	AID504770	Ba CapD inh
O=[N+]([O-])c1ccc(Oc2ccc(-c3ccccc3)c(F)c2)c(Br)c1	.	0.32
Cc1cc(N2CC(C)CC(C)C2)nc2ccc(NC(=O)CCC(=O)NCc3ccco3)cc12 (centres undefined)	-0.3	28
CC1CCCC(NC(=O)CN(C)S(=O)(=O)c2cnc[nH]2)C1C (centres undefined)	-0.05	-0.67
Cc1csc(=Nc2ccccc2)n1C1CCCC1	-0.3	.
O=C(c1ccc2ccccc2n1)N1CCOCC1	0.6	.
COC(=O)CN1C(=O)COc2ccc(C)cc21	-0.45	-0.42

# Reformatted with two lines to a compound: five of the compounds above
# The line under a structure holds: AID504770	Ba CapD inh
> O=[N+]([O-])c1ccc(Oc2ccc(-c3ccccc3)c(F)c2)c(Br)c1
→ .	0.32
> Cc1cc(N2CC(C)CC(C)C2)nc2ccc(NC(=O)CCC(=O)NCc3ccco3)cc12 (centres undefined)
→ -0.3	28
> CC1CCCC(NC(=O)CN(C)S(=O)(=O)c2cnc[nH]2)C1C (centres undefined)
→ -0.05	-0.67
> Cc1csc(=Nc2ccccc2)n1C1CCCC1
→ -0.3	.
> O=C(c1ccc2ccccc2n1)N1CCOCC1
→ 0.6	.
